Screening data: PubChem BioAssay, Fisher Drug Discovery Resource Center
NPYLR7 agonist: agonists of mosquito NPYLR7 receptor, primary screen, cell-based, Aedes aegypti, calcium fluorescence, mosquito biting behavior; Aedes aegypti neuropeptide Y-like receptor 7 (NPYLR7); HEK293T NPYLR7/Galpha15, GCaMP6s calcium fluorescence; activation, % at 10 µM; 0.15% of 270,000 active; in the data active = activation above about 40%;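 also: 0% = vehicle and 100% = reference agonist at the receptor; some compounds past the cut are filed as inactive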
NPYLR7 agonist max-min: second read-out of NPYLR7 agonist, no call of its own (marks repeat the call); activation, %; measured here: Max-Min RFU normalised activation; some inactives read as strong as hits;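 span of the calcium signal over five minutes; 0% = vehicle and 100% = native peptide agonist; compound fluorescence can raise it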
* hit, by the source's call; & = joins results of further samples. An excerpt; count on the stated rates, not on these rows.

SMILES	NPYLR7 agonist	NPYLR7 agonist max-min
CC/C=C(/C)C(=O)NC(C)c1ccc(OCc2ccncc2)c(OC)c1 (stereo not drawn)	4.6	2.7
Cc1cc(C)cc(NC(=O)Cn2nc(C3CC3)c3cnn(-c4ccc(C)c(C)c4)c3c2=O)c1	4.2	1.6
COc1cc(Cl)c(C)cc1NC(=O)C1CCN(C(=O)C2CC2)CC1	2.9	1.1
C=CCN(CC=C)C(C(=O)O)c1ccc(F)c(C)c1 (stereo not drawn)	3.3	2.6
CC(CNC(=O)C(C)(C)c1ccccc1)Oc1cccnc1 (stereo not drawn)	-1.4	-2.5
C1=Cc2n[n+]3c4ccccc4nn3c2=CC1	-15.6	-20.8
c1ccc(C2CCCCN2Cc2ccc(-c3ccn[nH]3)s2)nc1 (stereo not drawn)	0.7	-3.2
O=C(c1ccc(-n2cncn2)nc1)N1CCC2(CCCCC2)CC1	0.6	-1.2
CC1(C(=O)NS(=O)(=O)c2cccs2)CCN1C(=O)c1ccc(C2CCCCC2)cc1 (stereo not drawn)	5.1	3.0
Cc1ncsc1CCn1cnc(-c2ccccc2)c1-c1ccc(CO)o1	27.7	21.3
CCOc1ccccc1NC(=O)N1CCCCC1CCn1cccn1 (stereo not drawn)	-2.7	-10.8
CC1(C(=O)Nc2ccc(F)cc2F)CCN1C(=O)c1ccccc1CCc1ccccc1 (stereo not drawn)	9.4	9.2
CCN1CCN(Cc2c(O)cc(C)c3c2O/C(=C\c2ccco2)C3=O)CC1	64.9*	56.1*
CCC(=O)Nc1cc(-c2cccs2)nn1-c1nc(C)c(C)c(=O)[nH]1	-1.7	-3.0
CC(C)C(=O)Nc1c(-c2ccc(Cl)cc2)nc2ccccn12	-2.9	-1.8

Shown with two lines to a compound: part of the list above
Under each structure – NPYLR7 agonist	NPYLR7 agonist max-min
COc1cc(Cl)c(C)cc1NC(=O)C1CCN(C(=O)C2CC2)CC1
    2.9	1.1
C=CCN(CC=C)C(C(=O)O)c1ccc(F)c(C)c1 (stereo not drawn)
    3.3	2.6
CC(CNC(=O)C(C)(C)c1ccccc1)Oc1cccnc1 (stereo not drawn)
    -1.4	-2.5
C1=Cc2n[n+]3c4ccccc4nn3c2=CC1
    -15.6	-20.8
c1ccc(C2CCCCN2Cc2ccc(-c3ccn[nH]3)s2)nc1 (stereo not drawn)
    0.7	-3.2
O=C(c1ccc(-n2cncn2)nc1)N1CCC2(CCCCC2)CC1
    0.6	-1.2
CC1(C(=O)NS(=O)(=O)c2cccs2)CCN1C(=O)c1ccc(C2CCCCC2)cc1 (stereo not drawn)
    5.1	3.0

Record cards, from the list above.
Entry for `O=C(c1ccc(-n2cncn2)nc1)N1CCC2(CCCCC2)CC1` : NPYLR7 agonist = 0.6; NPYLR7 agonist max-min = -1.2
Entry for `CC1(C(=O)NS(=O)(=O)c2cccs2)CCN1C(=O)c1ccc(C2CCCCC2)cc1` (stereo not drawn) : NPYLR7 agonist = 5.1; NPYLR7 agonist max-min = 3.0

Carrying on.
SMILES	NPYLR7 agonist	NPYLR7 agonist max-min
Cc1c(C(=O)N2CCC2)oc2ccc(Br)cc12	0.3	2.5
CC(OCC(F)(F)F)C(=O)N1CCCC1 (stereo not drawn)	-4.3	-8.2
Cc1ccc(CSc2nc(=O)n3ccccc3n2)cc1	8.2	7.6
O=C(/C=C/c1ccccc1)N1CCCN(c2nc(Cc3ccccc3)ns2)CC1	-3.0	6.3
Cc1ccc(C2=NC3(CCCCCC3)NC2=S)cc1	8.5	3.6
O=C(CCc1ccsc1)N1CCC2(CCCN(Cc3ccc(F)cc3)C2)C1 (stereo not drawn)	0.1	-4.7
Cc1cccc(N(Cc2ccccc2)C(=O)CN2C(=O)CN(C)C2=O)c1	1.4	0.3
CC(O)c1ccc(CNC(=O)c2ccc(C3SCCCS3)cc2)cc1 (stereo not drawn)	0.2	6.3
CSCC(C)N1CCC(Oc2cc(Cl)ccc2C(=O)N2CCCCC2)CC1 (stereo not drawn)	-1.4	-7.3
CC(=O)O[C@H]1[C@H](NC(=O)c2cccs2)[C@H]2O[C@@H]1c1ccccc12	1.4	13.2
O=c1[nH]c2ccccc2c2ccccc12	3.7	-28.2
CCCC1CCC(C2=N/C(=C\C=C\c3ccccc3OC)C(=O)O2)CC1 (stereo not drawn)	-0.3	-3.9
CCc1nc2c(OCCC3CCCCC3)cccn2c1N(C)C(=O)c1ccncc1	-6.0	-9.3
Cc1nc(CNC(=O)C2CCCOC2)oc1-c1ccc(Cl)cc1 (stereo not drawn)	3.9	2.2
CC(=O)Nc1cccc(-c2ccc(S(N)(=O)=O)s2)c1	4.0	-1.9
CC(NC(=O)C1CC(=O)N(NC(=O)OC(C)(C)C)C1)C1CC1 (stereo not drawn)	-2.8	-5.4
Cc1ccc(NC(=O)CC(=O)N(CCO)CCO)cc1	-2.6	-3.3
CCCn1c(C)cc(C(=O)CN2C(=O)C(=O)N(CC)C2=O)c1C	0.1	2.8
Cc1ccc(C(OC(=O)CCNC(=O)c2ccccc2Cl)C(F)(F)F)o1 (stereo not drawn)	0.3	-1.3
CCCCn1c(=O)[nH]c(=O)c2c1nc(COC(=O)C1CC1)n2C	10.1	9.9
Cc1cc(S(=O)(=O)NNC(=O)c2cccn2C)c(C)cc1Cl	-4.8	-8.0
CN(Cc1ccc(F)cc1)Cn1[nH]c(-c2ccc(Cl)cc2)nc1=S	6.6	2.8
CCOCCOc1nc(-c2cccc(F)c2)n(-c2ccc(NC(=O)c3ccccc3Cl)cc2)n1	11.7	19.0
CCC(=O)Nc1ccc(Nc2ccc(-n3nc(C)c(C)c3C)nn2)cc1	-3.4	-9.6
COc1ccc(NC(=O)CNC(=O)CN(C(=O)c2ccc(C)c([N+](=O)[O-])c2)C2CCCCC2)cc1	-1.0	4.9
COCC1CCN(c2nc(C(C)(C)C)nc3c2cnn3C)C1 (stereo not drawn)	2.8	0.4
CCS(=O)(=O)Nc1ccc(C(=O)NCc2cnn3ccccc23)cc1	-2.5	-5.0
Cc1ncc2c(c1CNC(=O)c1ccc3c(c1)OCO3)CCN(C(=O)c1cc(Cl)ccc1F)C2	3.8	-1.1
COCCN1C(=O)C(O)=C(C(=O)c2cc3cccc(OC)c3o2)C1c1ccc(Cl)cc1 (stereo not drawn)	-4.9	-8.4
CCOc1ccccc1-c1nc(SCC(=O)NC2CC3CCC2C3)n[nH]1 (stereo not drawn)	-1.1	-2.4
Cc1ccc(N2CC(C(=O)N3CCN(c4ncnc5c4nnn5C)CC3)CC2=O)cc1 (stereo not drawn)	1.0	9.8
O=C(NCC1COCCO1)c1cc(COc2cccc(C(F)(F)F)c2)on1 (stereo not drawn)	3.2	2.2
CCOC(=O)c1c(C)n(-c2ccccc2)c2ccc(OC(=O)c3ccc(C)cc3)cc12	-0.9	-4.7
CC1(C)N=C(c2c(F)c(F)c(F)c(F)c2F)N(O)C1(O)c1ccccc1 (stereo not drawn)	0.1	7.7
Cc1cc(C)n(C(=O)c2cc(-c3ccc(C)c(C)c3)nc3ccccc23)n1	1.8	6.3
O=C(NCCCn1nc(-c2ccncc2)ccc1=O)c1ccc2ccccc2c1	29.1	23.2
COc1cc(C2c3cccn3CCCN2Cc2ccccc2[N+](=O)[O-])cc(OC)c1OC (stereo not drawn)	37.4	46.8
O=C(COc1ccccc1[N+](=O)[O-])Nc1nc(-c2ccc3c(c2)OCCO3)cs1	9.3	6.3
CCC(NC(=O)N1CCN(C(=O)c2ccco2)CC1)c1ccncc1 (stereo not drawn)	-19.3	-22.3
CC(NC(=O)c1ccc(=O)[nH]c1)c1ccc(F)cc1F (stereo not drawn)	8.0	9.0
CCOC(=O)c1c(NC(=O)c2ccc(F)cc2)sc(C(=O)Nc2cc(C(F)(F)F)ccc2Cl)c1C	-7.8	4.6
COc1cc(COC2CCCN(C(=O)c3ccc(F)cc3)C2)cc(OC)c1 (stereo not drawn)	-1.5	2.0
Cn1c(NC2c3ccccc3CCC2(C)C)c(C#N)c(=O)n(C)c1=O (stereo not drawn)	2.1	1.7
CCOC(=O)c1ccc(NC(=O)Nc2ccc(N3CCC(C)CC3)c(C(=O)NCCOC)c2)cc1	-4.3	-3.6
Cc1c(Cl)c([N+](=O)[O-])nn1CC(=O)NCC(C)C	-4.1	-4.4
C=CCNc1ccccc1C(=O)NCc1ccc2c(c1)n(C)c(=O)n2C	13.1	7.6
O=C(CSc1nnc(-c2ccccc2)n1-c1ccccc1)N/N=C\c1ccccc1	-3.0	-9.1
COc1ccc(CN(C)C(=O)c2ccc3cccc(F)c3n2)cc1O	4.7	-7.4
O=C(c1ccc(Br)cc1)N(Cc1ccccc1)Cc1cccn1Cc1ccc(Br)cc1	1.0	13.7
Cc1nc2c(C(=O)N3CCCC(CCc4ccccc4C)C3)cccc2[nH]1 (stereo not drawn)	-5.9	-9.5
N#CCCN(CCc1ccccn1)C(=O)c1csc(COC(=O)c2ccccc2)n1	-10.2	-16.6
CCCOc1ccccc1C1C(C(=O)OCC)=C(C)NC2=C1C(=O)CC(c1ccccc1)C2 (stereo not drawn)	-0.7	-1.9
COc1cc(C2c3[nH]c4ccccc4c3CCN2C(=O)c2cccc(SC(F)F)c2)ccc1Br (stereo not drawn)	-10.7	-18.5
Cc1nnc(-c2cc3ccccc3n2Cc2ccccc2Cl)o1	-7.6	-4.7
CCOCCCN1C(=O)C(=Cc2c(N3CCOCC3)nc3c(C)cccn3c2=O)SC1=S	0.2	-0.5
CC(C)CCn1c(=O)c2c(nc3n2CC(C)CN3C2CCCCC2)n(C)c1=O (stereo not drawn)	1.0	5.7
O=C(Nc1nc2c(s1)CCCC2)C1COc2ccccc2O1 (stereo not drawn)	12.2	5.0
C/C(=N\NC(=O)c1cc(C2CC2)[nH]n1)c1ccc2ccccc2c1	4.7	5.0
O=C(Nc1cc(-c2ccc(Cl)cc2)nn1-c1cc(Cl)ccc1Cl)c1ccc(F)c(C(F)(F)F)c1	15.3	1.0
CCc1nn2c(ncc3c(=O)n(-c4ccccc4)ccc32)c1-c1ccc(OC)cc1	3.4	-0.3
Other results.
SMILES	NPYLR7 agonist	NPYLR7 agonist max-min
OC(Cc1ccccc1)c1ccc(Br)cc1 (stereo not drawn)	5.7&-2.9	3.6&-4.5
CCCSc1ncc(CN2CCC(O)(Cn3ccnc3)CC2)cn1	14.0	6.0
COc1ccc(S(=O)(=O)N2CCc3ccccc3C2)cc1N1CCN(C(=O)c2cc(C)oc2C)CC1	26.6	17.9
O=C(O)c1oc2ccc(Br)cc2c1-n1cccc1	-2.5	-4.6
CN(Cc1nc(C2CC2)no1)C(=O)c1ccc(NC(=O)C2CCC2)cc1	0.7	3.4
COCCCN1C(=O)CC(CC(=O)N2CC3CCCC2C3)(c2ccccc2OC)C1=O (stereo not drawn)	1.8	-2.7
Cc1cnccc1N1CCCN(C(=O)c2ccccc2C2CCNC2)CC1 (stereo not drawn)	5.7	0.2
COCCN=C(NC(=O)c1cccc(C(F)(F)F)c1)OCCOC	3.4	6.3
CC(=O)c1c(O)cc(=O)n(-c2ccccc2)c1-c1cccc2ccccc12	-5.1	-5.5
C#CCN1C(=O)C(=O)c2cc(Br)ccc21	1.6	-3.6
Cc1c(Cl)c([N+](=O)[O-])nn1CC(=O)Nc1ccc(S(N)(=O)=O)cc1	-5.2	-12.2
CSCCCN1CCN(Cc2ccccc2C)CC1	7.1	5.1
COc1ccc2[nH]c3c(c2c1)CCN1C(=O)C2C(C)=C(C)SC2N=C31 (stereo not drawn)	-3.0	-6.7
CCCN(Cc1cc(=O)n2c(C)csc2n1)Cc1nnc(-c2ccco2)o1	-8.9	-9.3
CCN(CC)CCCC(C)NC(=O)c1cc(-c2ccccc2F)nc2cc(-c3ccccc3)nn12 (stereo not drawn)	4.3	4.2
N#CC(C(N)=S)=C1CCCCC1	-3.6	-4.6
COC(=NCC(C)C)NC(=O)c1ccc(Cl)c(Cl)c1	-14.9	-10.7
COc1cccc(C(=O)Oc2cccc3ccc(C)nc23)c1	0.3	-1.1
CC(C(=O)NCCC1=CCCCC1)N(C)C(C)c1ccc(-n2cncn2)cc1 (stereo not drawn)	14.3	10.6
CCOc1ccc(CN(CC)S(=O)(=O)c2ccc3c(c2)OCCO3)cc1OC	6.5	5.3
COc1cccc(C(=O)N2CCC(n3cnc4cc(C(F)(F)F)ccc43)CC2)c1C	-1.3	-1.6
Cc1ccoc1C(=O)N1CCC(Nc2ccccc2Cl)CC1	-1.4	-5.4
O=C(O)c1ccc(-n2nc3c4c(cccc4c2=O)-c2ccccc2-3)cc1	3.8	9.9
CNC(=O)COC(=O)C(C)(C)CCCc1ccccc1	1.9	2.0
COc1cccc(CCNC(=O)c2ccc(S(=O)(=O)N3CCCCC3)o2)c1	-10.4	-10.6
CCOC(=O)c1ccc(OCC(O)CN2CC(C)OC(C)C2)cc1 (stereo not drawn)	2.1	-2.4
Fc1ccc(C2(c3noc(CCN4CCCCO4)n3)CCOC2)cc1 (stereo not drawn)	18.6	13.0
COC(=O)NNC(=O)CNC(=O)C12CC3CC(CC(C3)C1)C2	-5.2	3.4
CCCC(=O)N1CCC1(C)C(=O)NS(=O)(=O)c1cccc(C)c1 (stereo not drawn)	-2.1	-4.2
CCOC(=O)C(Cc1ccccc1)N(Cc1ccc2c(c1)OCCO2)C(=O)CSc1ccc(C(F)(F)F)cn1 (stereo not drawn)	-9.0	-22.7
CC(C)(C(=O)Nc1ccccc1)N(C(=O)CN1C(=O)c2ccccc2C1=O)C1CC1	-4.9	-3.9
COc1cccc(C(=O)N(CC(=O)Nc2cc(-c3ccccc3)nn2-c2ccc(Cl)c(Cl)c2)C(C)C)c1	2.4	6.6
